# HSD17B inhib – HSD17B dehydrogenase inhibition | Q99714 | recombinant HSD17B10, NADH fluorescence kinetic; many of its hits are not listed in these tables | Potency, µM (top dose mostly 57.1 µM), for the others: at the top dose activity change, negative = inhibition, hits mostly inhibitors | 75,000 tested, 7.6% active | AID 893; active = well fitted inhibition curve with a large enough effect; inconclusive = small, poorly fitted or top-dose-only effect; inactive = no such curve, though single readings can be large or run the other way;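 note: the protocol describes HADH2 (HSD17B10) and not the HSD17B4 of the title; nearly all actives have a fitted effect of over 70% in size; most hits overshoot -100% by far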
#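 20 nM HADH2, pH 9.0 Tris/Tween; cpd preinc 15 min RT; start w/ 1 mM NAD+ + 90 uM b-hydroxybutyryl-CoA; kinetic fluor ex360/em450 q30s x 4 min; delta last-first.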
# * = called active by the depositor; ? = inconclusive; [ ] = remark or other dose. % is set by controls: 0 for no effect and ±100 for the full control effect; potency is the fitted concentration of half-maximal effect. These rows are one share of the data (hit frequency here may not be typical).
SMILES,HSD17B inhib
O=C(Cn1cc(C(F)(F)F)ccc1=O)N1CCN(S(=O)(=O)c2ccc(Cl)cc2)CC1,5%
CN1CCc2cc3c(cc2[C@@H]1[C@@H]1C(=O)Oc2c1ccc1c2OCO1)OCO3,-10%
O=C(NC1CC2CCC1C2)C1CCN(S(=O)(=O)c2ccc(-c3nn[nH]n3)cc2)CC1 (stereo not drawn),-4%
CC(C)CCn1nnnc1C(c1ccc(F)cc1)N1CCC(C(N)=O)CC1 (stereo not drawn),11%
CC1CCN(CCCNC(=O)COc2cc(=O)n(C)c3ccccc23)CC1,0%
Cc1c(C(=O)OCCOC(C)C)[nH]c2c1C(=O)CC(c1ccco1)C2 (stereo not drawn),?
COc1ccc(S(=O)(=O)Nc2ccc(CC#N)cc2)cc1,-1%
Cn1c(=O)c2c(nc(SCC(=O)NCC3CCCO3)n2C)n(C)c1=O (stereo not drawn),2%
NC(=O)CSc1nc(O)cc(=O)n1-c1ccccc1,-9%
Cn1c(=O)c2c(nc(NCCCN3CCOCC3)n2Cc2ccc(Cl)cc2Cl)n(C)c1=O,13%
Cn1c(=O)c2[nH]c(CCCCc3nc4c([nH]3)c(=O)n(C)c(=S)n4C)nc2n(C)c1=S,-4%[11.4 µM]
CN(C)CCNS(=O)(=O)c1ccc(Cl)cc1,3%

# Arranged by number of heavy atoms (low to high): part of the list above
SMILES,HSD17B inhib
CN(C)CCNS(=O)(=O)c1ccc(Cl)cc1,3%
NC(=O)CSc1nc(O)cc(=O)n1-c1ccccc1,-9%
COc1ccc(S(=O)(=O)Nc2ccc(CC#N)cc2)cc1,-1%
CC(C)CCn1nnnc1C(c1ccc(F)cc1)N1CCC(C(N)=O)CC1 (stereo not drawn),11%
Cn1c(=O)c2[nH]c(CCCCc3nc4c([nH]3)c(=O)n(C)c(=S)n4C)nc2n(C)c1=S,-4%[11.4 µM]
Cn1c(=O)c2c(nc(NCCCN3CCOCC3)n2Cc2ccc(Cl)cc2Cl)n(C)c1=O,13%

# Going on with the list.
SMILES,HSD17B inhib
CC1CCc2[nH]nc(C(=O)O)c2C1 (stereo not drawn),-2%
COc1cc(SC)ccc1C(=O)Nc1ccccc1C#N,-11%
Nc1nc2nc(Cl)[nH]c2c(=O)[nH]1,-5%
C=CCn1c(NCc2ccc(N(C)C)cc2)nc2ccccc21,-1%
COC(=O)c1ccc2c(=O)n(CCCCCC(=O)N3CCN(c4ccccc4)CC3)c(=O)[nH]c2c1,?
COC(=O)CSc1nc2ccccc2o1,-2%
O=C(Nc1ccc2oc(-c3ccc(F)cc3)nc2c1)c1ccccc1F,20µM*
Cc1sc2nc(CN3CCOCC3)nc(NS(=O)(=O)c3ccc4c(c3)OCCO4)c2c1C,4%
COC(=O)Cn1c(=N)n(CCN2CCCCC2)c2ccccc21,-3%
O=C(CCOc1ccccc1)Nc1ccc(S(=O)(=O)N2CCCC2)cc1,-8%
CC1(C(=O)NC2CCCCCCC2)CCC(=O)N1Cc1cccnc1 (stereo not drawn),1%
Cc1ccc(CNC(=O)C2CCCN(S(C)(=O)=O)C2)cc1 (stereo not drawn),7%
Cc1noc(C(=O)N2CCN(c3ccc(F)cc3)CC2)c1Cl,6%
CC(C(=O)Nc1cccnc1)N1C(=O)C2C3C=CC(C3)C2C1=O (stereo not drawn),10%
COc1ccc(CCNC(=O)C2CCN(S(=O)(=O)N3CCCCCC3)CC2)cc1OC,12%
O=C(CSc1nnc(-c2ccccc2)o1)Nc1ccccc1F,7%
CC(C)[C@](N)(C(=O)O)c1ccccc1,7%[11.4 µM]
CCN(CC)CCCN(C(=O)c1cccs1)c1nc(-c2ccc(OC)cc2)cs1,2%
CCCC(=O)Nc1cc(=O)[nH]c2ncnn12,5%
C[N+]1(C)C[C@@H](O)C[C@@H]1C(=O)[O-],7%[25.6 µM]
CCOc1ccc(NC(=O)CN2CCN(CC(=O)c3ccc(OC)c(OC)c3)CC2)cc1,-8%
CCOC(=O)N1CCN(c2cc(=O)n(-c3ccccc3Cl)c(=O)[nH]2)CC1,6%
CCC1(C)Cc2nc3sc(C(=O)O)c(N)c3cc2CO1 (stereo not drawn),?
CCn1c(SCC(=O)C(C)(C)C)nnc1-c1ccccc1OC,1%
O=C(Nc1ccc2c(c1)OCO2)c1cnn2c1NC(c1ccco1)CC2C(F)(F)F (stereo not drawn),?
N#Cc1ccccc1Cn1c(=O)n(CCCC(=O)NCc2ccc3c(c2)OCO3)c(=O)c2ccccc21,3%
O=C(N/N=C1/C[C@@H](O)[C@@H](O)[C@@H]2[C@H]3C(=O)N(c4ccc(F)cc4F)C(=O)[C@@H]3CC[C@H]12)OCc1ccccc1,2%[11.4 µM]
COc1ccc(N(Cc2cc3ccc(C)cc3[nH]c2=O)C(C)=O)cc1,-10%
O=C(CCC1N=C2c3ccccc3N=C(SCc3ccc(Cl)cc3)N2C1=O)NCc1ccco1 (stereo not drawn),?
Cc1ccc2cccc(NC(=O)c3ccc(Br)o3)c2n1,-19%
CC(C)c1nnc(NC(=O)CSc2ncn[nH]2)s1,0%
COC(=O)C1=C(C)N(c2ccc(Cl)c(Cl)c2)C(=O)C1,3%
C=CCSc1nc2ccccc2c(=O)n1Cc1ccco1,9%[11.4 µM]
CN(C)c1ccc(-c2cncnc2Nc2ccc(F)cc2)cc1,-30%
CCOC(=O)[C@H](CCc1ccccc1)N[C@@H](C)C(=O)N1[C@H](C(=O)O)C[C@H]2CCCC[C@@H]21,20%
CCOC(=O)Cc1csc(NC(=O)CS(=O)(=O)Cc2ccccc2)n1,13µM*
C=CCOC(=O)C(C#N)c1nc2ccccc2nc1N1CCCC1 (stereo not drawn),?
CC1CC(C)(C)Nc2ccc(OC(=O)c3ccco3)cc21 (stereo not drawn),-13%
CN(C)c1ccc(C2(c3ccc(N(C)C)cc3)OC(=O)c3cc(N(C)C)ccc32)cc1,32µM*
Clc1ccc(CSc2nncn2-c2ccccn2)cc1,5%
CCCC1c2ccc(C)n2CCN1C(=O)Nc1ccc(F)cc1 (stereo not drawn),-10%
CCn1c(CC(=O)Nc2cccc(OC)c2)nnc1SCC(=O)N1CCN(c2ccccc2)CC1,8%
O=C(OC(C(=O)NCC1CCCO1)c1ccccn1)c1cccs1 (stereo not drawn),-1%
CCC/C=C(\CCC)C(NC(=O)c1cccs1)c1ccc(C(=O)OC)cc1 (stereo not drawn),4%
O=C(NCc1ccccn1)c1ccc(Br)s1,13%
O=C(C1CCN(c2nnc(-n3cccc3)s2)CC1)N1CCc2ccccc2C1,-9%
O=C(C1CC1)N1CCc2cc(S(=O)(=O)N3CCCc4ccccc43)ccc21,13%
O[C@@H]1C2CCCC1[C@]1(O)CCCCC1C2 (stereo partly drawn),10µM*

# Gathered by group, those above with a cyano group.
SMILES,HSD17B inhib
COc1ccc(S(=O)(=O)Nc2ccc(CC#N)cc2)cc1,-1%
COc1cc(SC)ccc1C(=O)Nc1ccccc1C#N,-11%
N#Cc1ccccc1Cn1c(=O)n(CCCC(=O)NCc2ccc3c(c2)OCO3)c(=O)c2ccccc21,3%
C=CCOC(=O)C(C#N)c1nc2ccccc2nc1N1CCCC1 (stereo not drawn),?

# The results go on.
SMILES,HSD17B inhib
O=C1CCc2ccccc2O1,10%
CCC(c1nnnn1C1CCCC1)N(Cc1cccs1)Cc1cc2cc(C)ccc2[nH]c1=O (stereo not drawn),?
Cn1cc(CNC(=O)COc2ccc(Cl)cc2Cl)cn1,-3%
CC1O[C@@H](Oc2c(-c3ccc(O)c(O)c3)oc3cc(O)cc(O)c3c2=O)C(O)C(O)C1O (stereo partly drawn),-8%
O=C(COc1ccc(N2CC(C(=O)O)CC2=O)cc1)Nc1cccc(C(F)(F)F)c1 (stereo not drawn),4%
Cc1cccc(NC(=O)c2c(O)c3cccc4c3n(c2=O)CCC4)n1,12%
Clc1ccc(C2CC(c3cccs3)n3ncnc3N2)c(Cl)c1 (stereo not drawn),-6%
COc1ccc(-n2c(SCC(=O)N3CCCCC3C)nnc2-c2cccnc2)cc1 (stereo not drawn),2%
Cn1c(Cn2c(=O)sc3ccccc32)nnc1SCC(=O)Nc1ccc(Cl)cc1,-6%
O=C(O)COc1ccc(S(=O)(=O)c2ccc(OCC(=O)O)cc2)cc1,11%
CC(C)n1c(SCC(N)=O)nc2c1c(=O)n(C)c(=O)n2C,5%
COc1ccccc1NS(=O)(=O)c1cc(C(=O)O)ccc1F,6%
CC(C)CN1CCC2(CC1)CCN(C(=O)c1ccncc1)CC2,-3%
O=C(O)CNS(=O)(=O)c1ccc(F)cc1,2%
CC(C)=CC(=O)OCC(=O)Nc1ccccc1Cl,6%
COc1cccc(C2CC(c3cccc(Br)c3)n3ncnc3N2)c1 (stereo not drawn),2%
CCn1c(SCC(=O)Nc2ccc3c(c2)c2ccccc2n3CC)nnc1-c1ccco1,16µM*
COc1ccc(N2CCN(C(=O)c3cccc(N4C(=O)C5CC=CC(C)C5C4=O)c3)CC2)cc1 (stereo not drawn),-12%
COC(=O)CNC(=O)[C@@]1(C)C=C[C@@H](Cc2ccccc2)N1C(=O)OC,2%
CCn1cc(C(=O)NCCCOC(C)C)c2cc(OC)c(OC)cc2c1=O,-2%
CN1CCN(C(=O)c2ccc3c(c2)NC(=O)C(C)(C)O3)CC1,13%
Cc1cnc(CNc2ccnc(-c3cccc(C#N)c3)n2)cn1,1%
Cc1ccc2c(c1)c1nc3ccccc3nc1n2CCN1CCOCC1,-3%
O=C(Cn1cnc2c(cnn2-c2ccc(Cl)cc2)c1=O)NCC1CCCO1 (stereo not drawn),-2%

# 2 entries picked at random from those above:
SMILES,HSD17B inhib
COC(=O)CSc1nc2ccccc2o1,-2%
CCCC(=O)Nc1cc(=O)[nH]c2ncnn12,5%

# Quoted from the listing.
# HSD17B inhib, `O=C(O)CNS(=O)(=O)c1ccc(F)cc1` reads 2%
# HSD17B inhib, `COc1ccc(N2CCN(C(=O)c3cccc(N4C(=O)C5CC=CC(C)C5C4=O)c3)CC2)cc1` (stereo not drawn) reads -12%
# HSD17B inhib, `CCn1cc(C(=O)NCCCOC(C)C)c2cc(OC)c(OC)cc2c1=O` reads -2%
# HSD17B inhib, `COC(=O)CNC(=O)[C@@]1(C)C=C[C@@H](Cc2ccccc2)N1C(=O)OC` reads 2%

# (listing goes on)
SMILES,HSD17B inhib
CC(C)CCNC(=O)C(c1ccco1)N(Cc1ccccc1)C(=O)c1snc(C(N)=O)c1N (stereo not drawn),?
CCOC(=O)c1sc(NC(=O)CSc2nnc(C)s2)c(C(=O)OCC)c1C,0%
CCOC(=O)N1CCC(NC(=O)CCc2nc(-c3ccccc3F)no2)CC1,6%
Cn1c(SCC(N)=O)nnc1C1CCN(S(=O)(=O)c2ccccc2C(F)(F)F)CC1,2%
CC(=O)OC[C@H]1O[C@@H](O/N=C\[C@@H](C)[C@H](OCc2ccccc2)C(C)C)[C@H](OC(C)=O)[C@@H](OC(C)=O)[C@H]1OC(C)=O,-4%[11.4 µM]
Cc1nnc(N2C(=O)c3oc4ccccc4c(=O)c3C2c2ccco2)s1 (stereo not drawn),-9%
O=C(C1CC1)N1CCN=C1SCc1ccc(F)cc1,2%
O=[N+]1C2=C(CCCC2)N([O-])C12CCCC2,2%
COc1ccc(OCC(=O)Nc2cccc3ncccc23)cc1,0%
CCC(Sc1nnnn1C)C(=O)Nc1ccc(C(C)=O)cc1 (stereo not drawn),2%
C/C=C/c1ccc(OCCCCn2cncn2)c(OC)c1,-1%
CCCN1CCN(C(=O)Cn2cccc2C(=O)c2ccccc2)CC1,-5%
COC(=O)C(Cc1ccc(O)cc1)NC(=O)c1ccccc1OC (stereo not drawn),3%
c1ccc2c(c1)oc1c(NCCCn3ccnc3)ncnc12,-12%
NC(CSC12CC3CC(CC(C3)C1)C2)C(=O)O (stereo not drawn),0%
CCOC(=O)C1CCCN(C(=O)c2cn(CC(C)C)c(=O)c3cc(OC)c(OC)cc23)C1 (stereo not drawn),-15%
Nc1ncnc2c1ncn2C1CCCC1,3%
CCN1c2ccccc2-c2nc3ccccc3n2C1c1ccncc1 (stereo not drawn),25µM*
O=C(c1cn(-c2ccccc2)nc1-c1ccncc1)n1nnc2ccccc21,-19%
C[C@H](CO)NC(=O)[C@H]1C[C@@H]1[C@H](NP(=O)(c1ccccc1)c1ccccc1)c1ccccc1,3%
COc1ccc(S(=O)(=O)Cc2ccc(C(=O)N3CCN(c4cccc(C)c4)C(C)C3)o2)cc1 (stereo not drawn),5%
CC1=C/C(=C/N(C)c2ccccc2)C(=O)S1,16µM*
COCCNC(=O)Cn1cc2c(n1)CCCCC2,10%
CCCn1c(SCC(=O)NC(=O)Nc2ccc(C)cc2C)n[nH]c1=O,-2%
CCOC(=O)c1ccc(NC(=O)Nc2ccc(OC)c(OC)c2)cc1,-1%
CCC(=O)Nc1ccc2oc(-c3cccc(C)c3)nc2c1,3.2µM*
COC(=O)NC(/C=C/c1ccccc1)[C@]1(C(C)=O)CCCC1=O (stereo partly drawn),-4%[11.4 µM]
O=C(NCC1CCCO1)C1CCC(N2C(=O)c3ccccc3C2=O)CC1 (stereo not drawn),6%
C/C=C1\CC2C=CC1C2 (stereo not drawn),1%
O=C(NCCF)[C@H]1C[C@@H]1[C@H](NP(=O)(c1ccccc1)c1ccccc1)c1ccccc1,-5%
COC(=O)c1ccc(NC(=O)CN2CCN(c3cccc(Cl)c3)CC2)cc1,-6%
CCc1nn(C(C)C(=O)NCCc2ccc(OC)c(OC)c2)c(=O)c2cc3occc3n12 (stereo not drawn),4%
O=C(c1cc(S(=O)(=O)N2CCOCC2)c(Cl)cc1Cl)N1CCCCC1,3%
Cc1cc(C)nc(N2CCC(C(=O)NCc3cccs3)CC2)n1,-10%
COc1cc(N=Nc2cccc(S(N)(=O)=O)c2)c2ccccc2c1N,-11%[11.4 µM]
